Screening results deposited in PubChem BioAssay by National Center for Advancing Translational Sciences (NCATS).
StopGo FLuc – lowers the firefly signal of an FMDV 2A StopGo reporter; HEK cells with a luciferase reporter of 2A StopGo recoding; Potency, µM (highest dose often 57.5 µM), without a hit: at the top dose signal change, negative = less light; 0.23% of 120,000 active; AID 1745856; active = well fitted falling curve with a large enough effect; inconclusive = small, poorly fitted or top-dose-only effect; inactive = no such curve, though single readings can be large or run the other way; also: nearly all actives have a fitted effect of over 60% in size; overnight with compound
StopGo RLuc – lowers the Renilla signal of an FMDV 2A StopGo reporter. HEK cells with a luciferase reporter of 2A StopGo recoding. Potency, µM (highest dose often 57.5 µM), inactives show at the top dose signal change, negative = less light. 0.32% of 120,000 active. AID 1745857; active means well fitted falling curve with a large enough effect; inconclusive means small, poorly fitted or top-dose-only effect; inactive means no such curve, though single readings can be large or run the other way; also: nearly all actives have a fitted effect of over 55% in size; overnight with compound
An asterisk follows results filed as active; ? = inconclusive; [ ] = dose if it differs, or a comment. % is scaled to controls: 0 for no effect and ±100 for the full control effect; potency is read from the fitted curve at half-maximal effect.

Second line of a record – StopGo RLuc	StopGo FLuc
Oc1c(C(c2ccccc2Cl)N2CCOCC2)sc2nc(-c3ccco3)nn12 (stereo not given)
→ 0%	4%
CCCNc1nc(-c2ccc3[nH]c(=O)oc3c2)cs1
→ 84%[activator]	202%[activator]
O=C(NCC(O)c1ccc(F)cc1F)c1cnccn1 (stereo not given)
→ 0%	18%
Cn1c(SCC(=O)Nc2ccccc2F)nc2c(=O)[nH]cnc21
→ 26%	0%
CC(Sc1n[nH]c(-c2cccs2)n1)C(=O)Nc1cc(Cl)cc(Cl)c1 (stereo not given)
→ ?	?
COc1ccc(S(=O)(=O)N2CCN(Cc3ccc(C(F)(F)F)cc3)CC2)cc1OC
→ ?	?
Cc1cccc(CS(=O)(=O)Cc2ccc(C(=O)NCc3ccc(Cl)cc3)o2)c1
→ -29%	?
Cc1cc(C)nc(/N=C2\NC(=O)CC(C(=O)O)N2c2ccc(Cl)cc2)n1 (stereo not given)
→ 8%	-16%
CCOC(=O)c1[nH]c2ccccc2c1NC(=O)CCC1CCCCC1
→ 4%	-6%
COc1cc2nc(NCCc3cccc(C)c3)n3nc(-c4ccccc4)nc3c2cc1OC
→ -11%	-6%

Compound profiles, from the list above. Order of values: StopGo RLuc | StopGo FLuc
O=C(NCC(O)c1ccc(F)cc1F)c1cnccn1 (stereo not given) across the screens: 0% | 18%
CCCNc1nc(-c2ccc3[nH]c(=O)oc3c2)cs1 across the screens: 84%[activator] | 202%[activator]
CCOC(=O)c1[nH]c2ccccc2c1NC(=O)CCC1CCCCC1 across the screens: 4% | -6%
Oc1c(C(c2ccccc2Cl)N2CCOCC2)sc2nc(-c3ccco3)nn12 (stereo not given) across the screens: 0% | 4%
CC(Sc1n[nH]c(-c2cccs2)n1)C(=O)Nc1cc(Cl)cc(Cl)c1 (stereo not given) across the screens: ? | ?

Going on with the list:
Second line of a record – StopGo RLuc	StopGo FLuc
Cc1nn2c(C)c(C(=O)NC(C)(C)C)cnc2c1-c1ccc(F)cc1
→ -14%	-16%
O=C(CSc1nc(=O)n(Cc2ccco2)c2c1CCC2)NCc1ccccc1
→ 239%[activator]	40%[activator]
Cn1c(=O)c2c(ncn2C(C(=O)Nc2ccc(F)cc2)c2ccccc2)n(C)c1=O (stereo not given)
→ 20%	13%
COC(=O)c1ccc(Cl)cc1NC(=O)Nc1nnc(N(C)Cc2ccccc2)s1
→ 5%	-12%
CCCCCCCNS(=O)(=O)c1ccc(OC)c2ncccc12
→ 138%[activator]	-30%
O=C(Nc1nc2n(n1)C(c1ccc(Cl)cc1)C=C(c1ccccc1)N2)c1ccco1 (stereo not given)
→ 55%[activator]	81%[activator]
Cc1cccc(-n2nnnc2S(C)(=O)=O)c1
→ ?	28µM*
CC1CCN(c2oc(-c3ccc([N+](=O)[O-])cc3)nc2C#N)CC1
→ -2%	4%
O=C(c1cc(=O)[nH]c2ccccc12)N1CCN(Cc2ccccc2)CC1
→ -7%	4%
COC(=O)c1cc(OCc2ccccc2C#N)cc(C(=O)OC)c1
→ -15%[1.06 µM]	-4%

An excerpt of these results, bar-delimited:
Compound | StopGo RLuc | StopGo FLuc
CC1CCN(c2oc(-c3ccc([N+](=O)[O-])cc3)nc2C#N)CC1 | -2% | 4%
O=C(c1cc(=O)[nH]c2ccccc12)N1CCN(Cc2ccccc2)CC1 | -7% | 4%
COC(=O)c1cc(OCc2ccccc2C#N)cc(C(=O)OC)c1 | -15%[1.06 µM] | -4%

(more compounds)
Second line of a record – StopGo RLuc	StopGo FLuc
COc1ccccc1N1CCN(S(=O)(=O)c2ccc(-c3cc(C(F)(F)F)on3)s2)CC1
→ -6%	?
CCN1CCCC1CNC(=O)C1CCCC1 (stereo not given)
→ -3%	-3%
COc1ccc(-c2ocnc2C(=O)Nc2ccc(C)c(Cl)c2)cc1OC
→ 8%	14%
N#C/C(=C/c1ccccc1Cl)c1nc(-c2cc3ccccc3oc2=O)cs1
→ -1%	15%
O=C(O)c1cccc(NC(=O)c2ccc(Cl)s2)c1
→ -1%	?
COc1c(Cl)cc(C(=O)Oc2cccc(C)c2)cc1Cl
→ 0%	5%
COc1ccc(Cc2nnc3n2N(C(C)=O)C(c2ccc(Cl)c(Cl)c2)=C(C(C)=O)S3)cc1
→ 1%	2%
Cc1ccc(C(=O)NCCn2ccc3ccccc32)cc1[N+](=O)[O-]
→ 16%	61%[activator]
CCOC(=O)CNc1cccc(C(=O)O)c1
→ 21%	51%[activator]
CC(C)(C)OC(=O)N1CCC(N2CCN(Cc3ccccc3)C(=O)C2=O)CC1
→ -2%	-13%
COc1ccc(NC(=O)C2(S(=O)(=O)c3ccc(C)cc3)CC2)c(OC)c1
→ 12%	-15%
COc1ccc(NC2=CC(c3cccc(OC)c3)N(c3ccc(OC)cc3)C2=O)cc1 (stereo not given)
→ 7%	38%[activator]
CCn1nc(C(=O)NC(CC(=O)OC)c2ccc(F)cc2)c2ccccc2c1=O (stereo not given)
→ 24%	1%
COc1ccc(NS(=O)(=O)c2ccc3oc(SCC(=O)N4CCCCC4)nc3c2)cc1
→ 148%[activator]	-5%
CCOc1ccc(C(=O)Nc2ccccc2N2CCN(C(=O)c3ccccc3)CC2)cc1
→ 14%	6%
COc1cccc(-c2nc(/C=C(/CCC(=O)O)c3nc4ccccc4s3)cs2)c1
→ 5%[1.06 µM]	-7%
CCCCc1cnc2c(c1SCC(=O)Nc1ccccc1C(=O)OCC)c(=O)n(C)c(=O)n2C
→ -1%	-5%
O=C1CCc2cc(S(=O)(=O)NCc3ccccc3)cc3c2N1CCC3
→ 45%[activator]	12%
CCO[C@H](Cc1ccc(OCCc2ccc(OS(C)(=O)=O)cc2)cc1)C(=O)O
→ -1%	7%[11.5 µM]
Cc1cccc(-c2noc(-c3cn(CC(=O)NCc4cccs4)c4nc(C)ccc4c3=O)n2)c1
→ 3%	153%[activator]
COc1ccc2c(C)c(CC(=O)Nc3ccc4c(c3)OCCO4)c(=O)oc2c1C
→ -14%	39%[activator]
O=C(Cc1c[nH]c2ccccc12)OCc1ccccc1Cl
→ 8%	94%[activator]
Cn1c(=O)c2c(ncn2CC(=O)O)n(C)c1=O
→ -13%	1%[11.5 µM]
CCc1ccc(-c2nn(CC(=O)NCc3ccccc3)c3c2cnc2ccc(C)cc23)cc1
→ -14%	-10%
CC(=O)Nc1cc(-c2nc3cc(Cl)ccc3o2)ccc1C
→ -12%	126%[activator]
O=C(CSc1nccn1Cc1ccco1)Nc1cc(C(F)(F)F)ccc1Cl
→ -25%	-26%
COc1cccc2c1Oc1ncccc1N(C(=O)CCC(=O)NC(C)C)C2
→ -1%	-10%
O=C(CS(=O)(=O)c1cccc2nsnc12)NCc1ccc(Cl)cc1
→ -9%	-20%
CCc1ccccc1NC(=O)c1cnn(-c2ccc(F)cc2)c1C1CCNCC1
→ -19%	-22%
COc1ccc(OC)c(-c2cc(C(=O)NCCc3ccccc3)c3c(-c4ccc(C)cc4)[nH]nc3n2)c1
→ -7%	9%
CCC(Sc1nc2ccncc2[nH]1)C(=O)Nc1ccc(C)cc1 (stereo not given)
→ 5%	0%
Cc1ccccc1N(C)C(=O)c1cnc(N2CCOCC2)c2ccccc12
→ 0%	-9%
COc1ccc(N(Cc2cccs2)C(=O)c2ccccc2C)cc1
→ -14%	-22%
CC(CNC(=O)c1ccc(Nc2nc3ccccc3n3nnnc23)cc1)c1ccccc1 (stereo not given)
→ -1%	-1%
N#CC(C#N)=CNc1nc(-c2ccc3c(c2)CCCC3)cs1
→ -3%[1.06 µM]	-39%
CCCCn1c(SCC(=O)NC(C)(C)C)nc2ccccc2c1=O
→ 73%[activator]	30%[activator]
COc1ccc(-c2noc(CSCC(=O)Nc3cccc(C(F)(F)F)c3)n2)cc1OC
→ 17%	16%
CC(=O)Nc1ccc(S(=O)(=O)Nc2ccc3c(c2)N(S(C)(=O)=O)CC3)cc1
→ 39%[activator]	1%
O=C(O)Cc1sc(Nc2ccccc2Cl)nc1-c1ccccc1
→ 6%	226%[activator]
CCOc1ccc(S(=O)(=O)NCC(c2ccc(N(C)C)cc2)N2CCc3ccccc32)cc1 (stereo not given)
→ 99%[activator]	0%
CC1CCc2nc3ncn(Cc4ccccc4F)c(=O)c3cc2C1 (stereo not given)
→ -15%	58%[activator]
COC(=O)c1sc2nc(N3CCOCC3)c3c(c2c1N)CCN(C)C3
→ -6%	4%
Nc1cccc(Nc2ccccc2)c1
→ ?	6%
CCCn1nc(C(=O)NCCC(=O)N2CCCC2)c2ccccc2c1=O
→ 20%	14%
CCN(CC)S(=O)(=O)c1ccc(C(=O)Nc2nn[nH]n2)cc1
→ 8%	3%
O=C(NC1CC1)c1cccc(NS(=O)(=O)c2ccc(C(F)(F)F)cc2)c1
→ -3%	0%
COc1ccccc1N1CCN(C(=O)C2CCN(S(=O)(=O)c3cccs3)CC2)CC1
→ 30%	130%[activator]
COC(=O)c1c(C)[nH]c(C(=O)C(C)OC(=O)c2ccc(F)cc2)c1C (stereo not given)
→ 15%	6%
CCCCN(CCCC)CCNC(=O)CN1C(=O)CSc2ccc(S(=O)(=O)N3CCCCC3)cc21
→ 1%	-4%
CCCOc1ccc(OCC(=O)Nc2ccc3oc(C)nc3c2)cc1
→ -14%	-3%

(continued)
Second line of a record – StopGo RLuc	StopGo FLuc
O=C(CCC1CCCC1)N1CCN(CC2CC=CCC2)CC1 (stereo not given)
→ -4%	15%
O=C(CCn1nc(-c2ccccc2)c2ccccc2c1=O)Nc1ccccc1
→ -4%	-7%
O=C(Cn1nc2c(cc1=O)CCCC2)NCc1ccc(Cl)cc1
→ -7%	21%
CCc1nn(CC(=O)NCCCN(CC(C)C)CC(C)C)c(=O)c2cc3sc(C)cc3n12
→ -13%	-6%
Cc1oc(-c2ccccc2)nc1C(=O)NCCCN1CCCC1=O
→ -10%	13%
CCN(CC(=O)NCc1cccs1)C(=O)C1CC(=O)N(c2cccc3ccccc23)C1 (stereo not given)
→ 3%	15%
Oc1c(C(Nc2ccccn2)c2ccccc2F)ccc2cccnc12 (stereo not given)
→ 5%	-32%
CCN1Cc2nnn(Cc3ccccc3)c2-c2ccccc2S1(=O)=O
→ 112%[activator]	5%
Cc1ccc(NS(=O)(=O)c2ccc3oc(=O)c4ncn(C)c4c3c2)cc1C
→ -9%	-13%
Cc1nc(N2CCN(C(=O)C(N)=O)CC2)c(C#N)c2c1CCCC2
→ 4%	13%
CCOC(=O)C(CC)Sc1ncnc2c1c(-c1ccccc1)cn2-c1ccc(OC)cc1 (stereo not given)
→ -2%	12%
COc1cc(Cl)c(C)cc1NC(=O)CSc1nc2c(c(=O)[nH]1)CCC2
→ -6%	-4%
O=C(Cn1c(=O)n(-c2ccccc2Cl)c(=O)c2sc3ccccc3c21)NC1CCCCC1
→ 6%	-22%
COc1ccccc1C1(CC#N)CCOC(C)(C)C1 (stereo not given)
→ -9%	-4%
O=C(COc1ccc2c(=O)c(-c3ccccc3)coc2c1)Nc1ccc2c(c1)OCO2
→ 0%	0%
CCOc1ccc(NC(=O)Nc2c(C)n(C)n(-c3ccccc3)c2=O)cc1
→ -13%	-13%
C[C@@H](O[C@H]1OCCN(Cc2n[nH]c(=O)[nH]2)[C@H]1c1ccc(F)cc1)c1cc(C(F)(F)F)cc(C(F)(F)F)c1
→ 32µM*	?
O=C(Nc1ccc(F)cc1)N(Cc1cccc(O)c1)C1CC1
→ -19%	-15%
COC(=O)c1ccc2c(c1)N(Cc1cc(C)ccc1C)C(=O)c1ccccc1S2(=O)=O
→ 15%	-20%
C=CCNC(=S)Nc1cccc(C(F)(F)F)c1
→ 210%[activator]	21%
CC(C)c1ccc(/C=C(\C#N)C(=O)NC2CCCCCC2)cc1
→ 58%[activator]	7%
Cc1ccc(Nc2nc(CSc3nnc4n3CCCCC4)cs2)cc1
→ 4%	136%[activator]
COc1ccc(NC(=O)Cn2c(=O)n(Cc3nc(-c4ccccc4)no3)c(=O)c3cc4c(cc32)OCO4)c(OC)c1
→ -8%	-7%
O=C(CCSc1nc(-c2ccc3c(c2)OCO3)cc(C(F)(F)F)n1)N1CCOCC1
→ -1%	2%
Brc1ccc(-c2noc(-c3ccncc3)n2)cc1
→ 9%	116%[activator]
CCCCCCSC1=C(C#N)C(c2ccc(C)cc2)CC(=O)N1 (stereo not given)
→ 0%	14%
CCc1c(C)c2ccc(O)c(CN3CCN(c4ccc(F)cc4)CC3)c2oc1=O
→ ?	?
Cc1cc(NC(=O)c2cccnc2)c(C)cc1I
→ 15%	0%
O=C(c1ccc(C(F)(F)F)cc1)N1CCN(C/C=C/c2ccccc2)CC1
→ -8%[1.06 µM]	?
COc1ccccc1N1CCN(c2csc3ccccc3c2=O)CC1
→ 132%[activator]	109%[activator]
CCOC(=O)c1c(NC(=O)CCN2CCOCC2)sc2c1CC(C)(C)OC2
→ -13%	-14%
COc1ccc(-c2noc(CN(C(=O)c3ccco3)C(C)C)n2)cc1OC
→ 69%[activator]	21%
CNC(=O)CN(C)C(=O)c1ccc(N2CCNCC2)c(NS(=O)(=O)c2ccc(C(C)C)cc2)c1
→ -14%	-6%
Cc1cc(C)c2oc(=O)cc(CN3CCN(c4ccccc4)CC3)c2c1
→ 24%	0%
COCCNC(=O)CCCN1C(=O)CCn2nc(-c3cccn3C)cc21
→ -5%	-13%
COc1cccc(C(O)c2nccn2Cc2ccccc2)c1 (stereo not given)
→ -1%	20%
CC(C)=CCC/C(C)=C/CN1CC(=O)N2[C@H](C[C@@]3(n4ccc5ccccc54)c4ccccc4N(S(=O)(=O)c4ccccc4)[C@@H]23)C1=O
→ 5%	2%

Compounds as they come; overall some 0.55% were active at least once.
